Screens as filed in PubChem BioAssay.
KCNQ2 block = KCNQ2 potassium channel inhibitors, primary screen, cell-based, CHO-K1, FluxOR thallium flux, B-score (AID 2156); O88943; 20 min; hits give low values; only compounds with negative scores are shown here; some inactives read as strong as hits; B-score at 10 µM; 310,000 tested, 1.1% active;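 active = fluorescence ratio B-score at most minus 3 library SDs, with starting brightness B-score within 2 library SDs, cut at about -5.5 in these data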
Target sequence (O88943 whole entry, looked up): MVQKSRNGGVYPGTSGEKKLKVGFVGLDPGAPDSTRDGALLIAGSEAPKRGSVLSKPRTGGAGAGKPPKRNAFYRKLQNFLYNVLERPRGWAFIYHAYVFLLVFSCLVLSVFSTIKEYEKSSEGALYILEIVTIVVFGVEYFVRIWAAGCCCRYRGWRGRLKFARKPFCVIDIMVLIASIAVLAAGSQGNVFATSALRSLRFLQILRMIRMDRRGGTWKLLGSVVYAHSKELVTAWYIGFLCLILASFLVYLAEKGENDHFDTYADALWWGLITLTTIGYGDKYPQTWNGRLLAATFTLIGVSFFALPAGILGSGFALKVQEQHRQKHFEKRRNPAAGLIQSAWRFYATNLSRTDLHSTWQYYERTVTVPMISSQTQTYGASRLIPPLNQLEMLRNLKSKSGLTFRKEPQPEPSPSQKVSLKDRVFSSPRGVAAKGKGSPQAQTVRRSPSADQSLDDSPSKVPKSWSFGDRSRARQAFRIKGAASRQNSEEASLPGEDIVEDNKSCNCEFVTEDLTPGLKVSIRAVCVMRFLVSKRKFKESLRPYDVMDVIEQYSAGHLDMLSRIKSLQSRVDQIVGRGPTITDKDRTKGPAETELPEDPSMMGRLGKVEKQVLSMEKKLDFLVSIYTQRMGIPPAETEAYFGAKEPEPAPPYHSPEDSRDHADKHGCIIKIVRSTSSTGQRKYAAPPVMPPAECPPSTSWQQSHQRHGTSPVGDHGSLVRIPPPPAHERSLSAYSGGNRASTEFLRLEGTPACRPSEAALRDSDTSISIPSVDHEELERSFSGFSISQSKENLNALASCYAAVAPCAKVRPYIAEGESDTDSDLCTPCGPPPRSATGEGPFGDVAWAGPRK
KCNQ2 block baseline = second read-out of KCNQ2 block, no call of its own (marks repeat the call); B-score; measured here: initial fluorescence intensity artifact check;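 brightness before thallium and not channel activity; 0 = typical well and far values either way flag optical interference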
* hit, by the source's call; i = inactive. Some of the compounds tested (hit frequency here may not be typical).

No. | Structure | KCNQ2 block | KCNQ2 block baseline
1 | CC1CCC(NC(=O)c2nn(C)c3c2CS(=O)(=O)c2ccccc2-3)CC1 (configuration not stated) | i | -0.84
2 | CC(O)C(O)C(O)C(O)/C=N/NC(=O)c1ccccc1 (configuration not stated) | i | -0.36
3 | O=C(NC1CCCCC1)N(C1=NCCCCC1)c1ccc(Br)cc1 | i | 2.4
4 | CCOC(=O)c1ccc(CC(=O)c2ccc(O)cc2O)o1 | i | 3
5 | COc1ccc(Cl)cc1NC(=O)c1sc2nc(C)nc(N3CCOCC3)c2c1C | i | -2.5
6 | CCOc1ccc(C(=O)NCC(=O)OCc2ccc(F)cc2Cl)cc1 | i | -2.1
7 | O=C(CNC(=O)Cc1ccc(Cl)cc1)NCC(=O)N1CCCCC1 | i | 4.8
8 | O=C(NC1CC(=O)N(c2ccccc2)C1)C(=O)c1c[nH]c2ccccc12 (configuration not stated) | i | 1.1
9 | CCOC(=O)c1[nH]c2ccc(Br)cc2c1NC(=O)CCN1CCOCC1 | i | -1.3
10 | CC(C)(C)c1ccc(/C=C(\c2nc3ccccc3[nH]2)S(=O)(=O)c2ccccc2)cc1 | i | 0.89
11 | CCN1/C(=C/C(C)=C/c2sc3ccccc3[n+]2CC)Sc2ccccc21 | i | 0.14
12 | Cc1c(C(=O)c2ccccc2C(=O)O)sc2ccccc12 | i | -0.38
13 | CCN(c1ccccc1)S(=O)(=O)c1cc(CN2C(=O)c3cccnc3C2=O)ccc1OC | i | -0.29
14 | CSc1ccc(OCC(=O)Nc2ccc(N3CCOCC3)c(Cl)c2)cc1 | i | -0.21
15 | CC1C(=O)Nc2ccccc2N1C(=O)C1CC1 (configuration not stated) | i | 2.2
16 | Cc1ccc(C(=O)N/C(=C/c2ccc(-c3cccc([N+](=O)[O-])c3)o2)C(=O)NC(C)(C)C)cc1 | i | -1.6
17 | O=C(Nc1cccc(C(F)(F)F)c1)Oc1ccccc1N1CCOCC1 | i | 0.02
18 | FC(F)(F)c1cccc(Cc2noc(CN3CCC(c4ccncc4)CC3)n2)c1 | i | 1.6
19 | O=C(CC(=O)N/N=C/c1ccccc1O)NCc1cccnc1 | i | -0.01
20 | CNC(=S)NCCCc1ccccc1 | i | -0.75
21 | COc1cccc(-n2c(C)c(C(C)=O)c(C(C)=O)c2C)c1 | i | 0.39
22 | CCc1nc(NCCO)c(C#N)c2c1CCCC2 | i | -0.38
23 | COC(=O)c1ccccc1NC(=S)N1CCN(c2ccccc2)CC1 | i | -0.02
24 | COc1ccc(NC(=S)SC)cc1OC | i | 0.33
25 | COc1ccc(C2C(C#N)=C(N)OC(C(C)(C)C)=C2C#N)cc1OC (configuration not stated) | i | -0.01
26 | COC(=O)c1nn(-c2ccc(OC)cc2)c(=O)cc1Oc1cccc(Cl)c1 | i | 0.02
27 | CCOC(=O)C1(CC2CCCCO2)CCN(C(=O)Nc2ccccc2SC)CC1 (configuration not stated) | i | 0.05
28 | CCn1ncc(Br)c1C(=O)Nc1sc2c(c1C(N)=O)CCC2 | i | -1.4
29 | CCN(CC(=O)Nc1c(F)cccc1F)C(=O)c1cccc(-n2cccc2)c1 | i | -0.02
30 | O=C(COC(=O)c1cccnc1SCC(=O)NCc1ccccc1)NCc1ccccc1 | i | 1.4
31 | COc1ccc(-c2nc(C)c(C(C)=O)n2O)cc1OC | i | 1.4
32 | Cc1c(NC(=O)C2CCN(S(=O)(=O)c3cccs3)CC2)c(=O)n(-c2ccccc2)n1C | i | -0.29
33 | Cc1cccc(OCCn2c(=O)n(C)c3ccccc32)c1 | i | 1.6
34 | CN(Cc1ccon1)C(=O)CC1C(=O)NCCN1Cc1ccc(Cl)c(F)c1 (configuration not stated) | i | 2.3
35 | O=S(=O)(NCc1ccccc1)c1ccc(-c2cnc(C3CC3)o2)cc1 | i | 1.7
36 | O=C(CN1CCN(S(=O)(=O)c2ccc(Br)cc2)CC1)Nc1ccc(F)cc1F | i | 0.01
37 | Brc1ccc(Cn2c(-c3ccc(Br)o3)nc3ccccc32)o1 | i | 0.52
38 | O=C(c1cccc([N+](=O)[O-])c1)c1ccc2c(c1)C(=O)N(c1c[nH]c(=O)[nH]c1=O)C2=O | i | 1.4
39 | CN(CCNC(=O)c1cc2c(=O)n(C)c3ccccc3c2n1C)Cc1ccccc1 | i | 1.9
40 | O=C(NNC(=O)c1cc(-c2ccccc2)nc2ccccc12)Nc1cccc(Cl)c1 | -6.3* | -0.16*
41 | COc1ccccc1C(=O)Nc1cc2c(cc1C(=O)O)OCCCO2 | i | -1
42 | CCCCc1nnc(NC(=O)c2cccc(S(=O)(=O)N3CCN(C)CC3)c2)s1 | i | -0.17
43 | Cc1ccc(OCCn2c(=O)sc3ccccc32)cc1 | i | 0.75
44 | O=C(COc1cccc2ccccc12)N/N=C/C=C/c1ccccc1 | i | -0.01
45 | COc1ccccc1C1N(c2ccc(Cl)cc2)C(=O)C2CCCN21 (configuration not stated) | i | 1.2
46 | CC(=O)c1cccc(OCCN2C(=O)NC(C)(C)C2=O)c1 | i | 0.03
47 | CCOc1ccc(CN(C)CC(=O)NCc2ccccc2)cc1 | i | -0.32
48 | Cc1nc(NC(=O)c2cccc(-c3cc4ccccc4oc3=O)c2)ccc1Br | i | -0.27
49 | COc1ccc(-n2c(SCC(=O)N(C)c3ccccc3)nc3c([nH]c4ccccc43)c2=O)cc1OC | i | 0.56
50 | CC1CCCN(S(=O)(=O)c2ccc(NC(=O)Cn3nnc(-c4ccccc4F)n3)cc2)C1 (configuration not stated) | i | 0.4
51 | CCN(CC(=O)NCc1ccc(Cl)cc1)C(=O)COc1cccc(Cl)c1 | i | 1.1
52 | Cc1oc(-c2cccs2)nc1CS(=O)CC(=O)NC1CCCCCC1 (configuration not stated) | i | -0.13
53 | O=C(O)CN1CCCCCC1=O | i | -0.11
54 | CCN1CCN(c2ncnc3scc(-c4ccc(OC)cc4)c23)CC1 | i | -0.48
55 | O=[N+]([O-])c1ccc(-c2nc(Nc3ccc(O)cc3)c3ccccc3n2)cc1 | i | -0.77
56 | C=C(C)CSc1nc2nc(C)cc(C)n2n1 | i | 0.35

(further entries)
No. | Structure | KCNQ2 block | KCNQ2 block baseline
57 | Cc1cccc(NC(=O)Cn2c(=O)n(Cc3ccco3)c(=N)c3c4c(sc32)COC(C)(C)C4)c1 | i | 0.11
58 | Cc1ncccc1C(=O)N1CCCC(CNC(=O)C2(c3ccc(Cl)cc3)CC2)C1 (configuration not stated) | i | -0.18
59 | CCOP(=O)(OCC)C(Nc1ccccc1)c1ccco1 (configuration not stated) | i | 1.6
60 | CCOc1ccc(CCNC(=O)CS(=O)Cc2nc(-c3ccc(C)cc3)oc2C)cc1OCC (configuration not stated) | i | 0.92
61 | Cc1nn(CC(=O)Nc2ccc3c(c2)nc(CN2CCCCC2)n3C)c(=O)c2ccccc12 | i | 0.38
62 | CCN(CC(=O)Nc1ccc(C(=O)OC)cc1)C1CCCCC1 | i | 1.4
63 | COc1ccccc1NC(=O)c1sc2ncn(Cc3cccc4ccccc34)c(=O)c2c1C | i | 0.28
64 | O=C(N/N=C/c1cc([N+](=O)[O-])ccc1Cl)c1cnccn1 | i | -1.4
65 | CCOc1ccc(S(=O)(=O)N2CCN(Cc3ccc4c(c3)OCO4)CC2)cc1C | i | -0.24
66 | Cc1ccc(S(=O)(=O)Nc2ccc(C(=O)Nc3cc(C)on3)cc2)cc1 | i | 0.59
67 | Cc1cccc2cc3cccc(C)c3nc12 | i | 0.26
68 | CCOc1ccccc1N(CC(=O)NC(C)(C)C)C(=O)CCC(=O)Nc1nccs1 | i | 0.6
69 | Cc1ccc(S(=O)(=O)NCC(=O)N(CC(=O)NCc2ccco2)Cc2ccccc2)cc1 | i | -2
70 | CCN(CC)C(=S)Nc1ccc(OC(F)F)cc1 | i | 0.53
71 | O=C(CCCC(=O)N1CCN(c2ccccc2F)CC1)c1ccccc1 | i | -0.95
72 | N#Cc1c(N2CCCCC2)nc(N2CCCCC2)c2c1CCN(Cc1ccccc1)C2 | i | -0.89
73 | CCN1C(=O)C(CC(=O)Nc2ccc(OC)cc2)N(CCCN2CCN(c3ccc(OC)cc3)CC2)C1=S (configuration not stated) | i | -2.5
74 | CC(C)N(C(=O)N1CCC(c2nc(-c3ccncc3)no2)CC1)C(C)C | i | -0.09
75 | CC1CCN(CC(=O)NC2CCCCC2)CC1 | i | 3.2
76 | O=C(/C=C/c1ccncc1)c1cc(Cl)ccc1O | i | -0.11
77 | Cn1nc(OCCOc2ccccc2)ccc1=O | i | 2.4
78 | Cc1ccnc(NC(=O)CCC(=O)N(CC(=O)NCc2ccc(F)cc2)c2cccc(F)c2)c1 | i | -0.4
79 | CCOc1cc(OCC)cc(C(=O)NC(=S)Nc2cccc(C(F)(F)F)c2)c1 | i | 1.3
80 | O=C(CN1CCN(c2ccccc2)CC1)Nc1scc2c1c(=O)oc1ccccc12 | i | -0.98
81 | COc1ccc(CN(C)CC(O)COC(c2ccc(OC)cc2)c2ccc(OC)cc2)cc1 (configuration not stated) | i | 3.3
82 | CCNC(=S)Nc1ccc(OCc2nc3ccccc3s2)cc1 | i | -0.05
83 | Nc1ccc2nc(CN3CCOCC3)[nH]c2c1 | i | 1.9
84 | COc1cc(-c2c(C#N)c(N)nc3c2c(C)nn3-c2ccc(C)c(C)c2)cc(OC)c1OC | i | -4.3
85 | COc1ccc(S(=O)(=O)Cc2ccc(C(=O)NCc3ccccc3)o2)cc1 | i | -1.1
86 | COc1ccc(OC)c(-c2csc(NC(=O)CSc3ccc(Br)cc3)n2)c1 | i | 0.73
87 | C=CC[n+]1c(-c2ccc(OC)cc2)csc1NNC(=O)Nc1ccccc1 | i | -1.1
88 | CCc1[nH]c(=O)c(C#N)c2c1CCCC2 | i | -0.51
89 | COc1ccc(C(=O)NCC(c2ccco2)N2CCc3ccccc32)c(OC)c1 (configuration not stated) | -8* | -0.73*
90 | Cc1cc(NC(=O)c2ccc(COc3ccccc3Cl)o2)no1 | i | -1.4
91 | CNc1nc(C)nc(-c2ccccc2O)n1 | i | -0.87
92 | COc1ccc(CN(Cc2ccccn2)S(=O)(=O)c2ccc(-n3cnnn3)c(OC)c2)cc1 | i | 0.5
93 | CCC(C(=O)Nc1ccc(C(=O)Nc2ccccc2C(=O)O)cc1)c1ccccc1 (configuration not stated) | i | 1.8
94 | O=C(CSc1ncnc2c1oc1ccccc12)Nc1cccc(Cl)c1 | i | 0.5
95 | CCCCNC(=O)C(C#N)c1nc2ccccc2nc1N1CCN(c2ccccc2F)CC1 (configuration not stated) | i | 0.8
96 | Cn1cc(-c2ccccc2C(=O)O)c(=O)c2ccccc21 | i | -0.6
97 | CCN(CC)c1nc(N)nc(N(c2ccccc2)c2ccccc2)n1 | i | -1.7
98 | Cc1cc(C)nc(Sc2ccc3nnc(C(F)(F)C(F)(F)C(F)(F)F)n3n2)n1 | i | -0.02
99 | COc1cc(C(=O)NCC(=O)N/N=C\C(C)=C/c2ccccc2)cc(OC)c1OC | i | -0.81
100 | CC(=O)Nc1ccc(-c2nc3ccc(NC(C)=O)cc3o2)cc1 | i | -0.97
101 | Cc1ccc(N2CCN(C(=O)NC3CCCCC3)CC2C)cc1 (configuration not stated) | i | 0.46
102 | COc1ccc(Cl)cc1-c1nc(-c2ccc(NC(=O)c3cccs3)cc2)no1 | i | 0.02
103 | CC(C)Oc1cccc(C(=O)C2CCCN(Cc3cccn3-c3cccnc3)C2)c1 (configuration not stated) | i | -1.3
104 | Cc1ccc(NC(=S)NNC(=S)NC2CCCCC2)cc1 | i | -2.1
105 | Cc1ccc(C)c(C(=O)O/N=C(\N)c2ccc(Br)cc2)c1 | i | -0.01
106 | O=C(CCCOc1ccc(Cl)cc1Cl)N1CCCc2ccccc21 | -14* | -0.63*
107 | O=C(c1ccccc1)c1ccccc1C(=O)N1CCOCC1 | i | -1.7
108 | CCc1ccc(-c2nnn(Cc3nn[nH]n3)n2)cc1 | i | -0.68
109 | Cc1ccc(-c2nnc(SCC(N)=O)n2C)cc1 | i | -0.76
110 | Cc1nn(CCC(=O)NNC(=S)Nc2ccc(F)cc2)c(C)c1Br | i | -1.4
111 | CCOc1cc(/C=C2\NC(=O)NC2=O)cc([N+](=O)[O-])c1O | i | 0.61
112 | CS(=O)(=O)N(CC(=O)N1CCN(c2ccccc2)CC1)c1ccc(Cl)c(C(F)(F)F)c1 | i | 0.17

The list goes on:
No. | Structure | KCNQ2 block | KCNQ2 block baseline
113 | Cc1ccc(S(=O)(=O)N2CCC(C(=O)O)CC2)cc1C(=O)O | i | -0.1
114 | CCc1c(C)nc(SCC(=O)CC(=O)OC(C)C)c(C#N)c1C | i | -0.77
115 | COc1ccc(S(=O)(=O)c2c(C)c(NS(=O)(=O)c3ccccc3)cc(C)c2O)cc1 | i | 0.14
116 | C=CCOc1ccc(/C=C2\N=C(C)OC2=O)cc1OC | i | 2.8
117 | CS(=O)(=O)Oc1ccc(Br)cc1/C=C1/N=C(c2ccco2)OC1=O | i | -0.49
118 | O=C(CCNS(=O)(=O)c1ccccc1)N1CCOCC1 | i | 0.51
119 | O=C(COc1ccc(Br)cc1Cl)c1ccc[nH]1 | i | 0.19
120 | O=C(N1CCOCC1)C12CC3CC(C1)CC(C(=O)N1CCOCC1)(C3)C2 | i | -0.63
121 | CCOc1cccc2c1OC1(C)CC2NC(=O)N1c1cccc(Cl)c1 (configuration not stated) | i | -0.64
122 | C/C(=N\OC(=O)c1ccc(F)cc1)c1sc(-c2ccc(Cl)cc2)nc1C | i | -0.7
